Vaccinia Venus: inhibitors of vaccinia virus (Venus reporter). 330,000 compounds, 0.46% hits. Potency, µM (series often up to 36.5 µM), without a hit: top-dose activity change, negative = inhibition, most hits filed as inhibitors. Vaccinia virus Venus reporter expression, fluorescence. AID 720580; active means well fitted inhibition curve with a large enough effect; inconclusive means small, poorly fitted or top-dose-only effect; inactive means no such curve, though single readings can be large or run the other way; tested in A549 cells; further: nearly all actives have a fitted effect of over 30% in size; inactives centre near -10
Vaccinia mCherry: vaccinia inhibition (mCherry reporter) | Vaccinia virus mCherry reporter infection, fluorescence; about a quarter of the inactives have no number | Potency, µM (highest dose often 36.5 µM), without a hit: at the highest dose activity change, negative = inhibition, hits mostly inhibitors | 310,000 compounds, 0.63% hits | AID 720579; active = well fitted inhibition curve with a large enough effect; inconclusive = small, poorly fitted or top-dose-only effect; inactive = no such curve, though single readings can be large or run the other way; tested in A549 cells; further: nearly all actives have a fitted effect of over 35% in size; inactives centre near -10
* = called active by the depositor; i = inactive; ? = inconclusive; / = no result given; & = joins results of further samples; [ ] = another dose, or the depositor's remark. On the % scale 0 is the no-effect control and ±100 the full control effect; potency means the concentration at half of the fitted maximal effect. Random draw from the library. Share with any hit: about 0.86%.

Molecule | Vaccinia Venus | Vaccinia mCherry
COCc1cc(=O)n2[nH]c(-c3ccccc3)cc2n1 | -12.5% | /
COc1ccc(N2CCN(C(=O)CN3C(=O)NC(c4ccc(OC)cc4)(c4ccc(OC)cc4)C3=O)CC2)cc1 | -28.9% | -17.8%
COc1ccc2c(c1)OC[C@H]1[C@H]2N2C(=O)c3ccc(C)cc3NC(=O)[C@@]2(C)[C@H]1c1ccccc1 | ? | ?
CCOC(=O)[C@]12CCCC=C1N(CCc1ccc(OC)c(OC)c1)C(=O)[C@H](CC(=O)N1CCSCC1)C2 | -9.4% | 0.6%
CCOC(=O)c1cc(-c2ccccc2)nn1Cc1ccccc1 | 4.1% | -0.5%
Cc1cccc(NC(=O)Cn2c(=O)n(Cc3ccccc3)c(=O)c3oc4ccccc4c32)c1C | ? | ?
Cc1ccc2nc(Cl)c(/C=N/n3c(C)nnc3C)cc2c1 | -9.6% | i
CC(C)Cn1c(SCC(=O)Nc2cccnc2Cl)nnc1-c1ccco1 | 6.6% | -16.2%
CCCC(=O)N(c1ccc2oc3c(c2c1)CCCC3)S(=O)(=O)c1cc(C)ccc1C | -1.1% | -8.9%
O=C(CCl)N1c2ccccc2SCC1c1ccccc1 (configuration not stated) | -20.3% | -27.0%
Cn1c(/C=N/O)nc2ccccc21 | -14.7% | -7.9%
CCOc1ccc2[nH]c(C)c(CN3CCCCCC3)c(=O)c2c1 | -3.8% | -9.9%
CCCc1[nH]nc2c1C(c1ccc(OC)c(Cn3nnc4ccccc43)c1)C(C#N)=C(N)O2 (configuration not stated) | -11.4% | -16.9%
O=C(/C=C/c1cccs1)NC(=S)NNC(=O)c1ccccc1O | -7.8% | ?
CCCN(Cc1nc(-c2ccc(Cl)cc2)no1)CC1CCCO1 (configuration not stated) | 0.5% | 5.9%
CCc1ccccc1NC(=O)Cn1ncc2c(C)n(Cc3ccccc3F)c(C)c2c1=O | -1.8% | 2.6%
C[C@H](NC(=O)COc1ccc(Cl)cc1)C(=O)N1CCC2(CC1)NCCc1[nH]cnc12 | -3.1% | i
Cc1c(-c2nc(-c3ccccc3)no2)nnn1-c1ccc(F)c(Cl)c1 | -4.2% | -8.2%
COc1cccc(CNC(=O)C2CCN(c3nc4ccc(Cl)cc4[nH]3)CC2)c1 | -10.2% | -18.4%
COc1cc(C)ccc1Oc1ccc([N+](=O)[O-])cc1 | -15.0% | -21.9%
COc1cccc(/C=N/n2c(-c3cc(C)[nH]n3)n[nH]c2=S)c1O | -0.4% | -14.5%
O=C(O)C1CCCCN1S(=O)(=O)c1cccc2nsnc12 (configuration not stated) | -10.2% | -13.3%
CN(C)CCn1c2c(c(SCC(=O)Nc3ccc(F)cc3F)nc1=O)CCC2 | -11.9%[7.34 µM] | -15.2%[7.34 µM]
Cn1c(-n2cccc2)c(-c2c(-c3ccccc3)[nH]c3c2c(=O)n(C)c(=O)n3C)c(=O)n(C)c1=O | -12.2% | -1.1%
CSc1ccc(/C=N/NC(=O)c2cc(O)cc(O)c2)cc1 | -9.2% | -8.0%

Molecule | Vaccinia Venus | Vaccinia mCherry
CC(=O)c1ccc(NC(=O)Nc2ccc(NS(=O)(=O)c3ccc(C)cc3)cc2)cc1 | ? | ?
Cc1ccccc1N(CC(=O)NCc1ccc2c(c1)OCO2)C(=O)C1CSC(=O)C1 (configuration not stated) | -5.0% | -9.7%
Cc1nc2cc(C(F)(F)F)ccc2n1C1CCN(CC(=O)N2CCOCC2)CC1 | -11.9% | -5.0%
COc1ccc(CN(C(=O)c2oc3cc(C)c(C)cc3c2C)C2CCS(=O)(=O)C2)cc1OC (configuration not stated) | -19.3% | i
COC(=O)C1=C(C(=O)OC)[C@@H]2N(C)c3ccccc3[C@@]23C[C@@H](C(=O)OC)N(C(=O)c2ccco2)C3=N1 | ? | i
COc1ccc(C(C)(O)c2nc(-c3ccc(Cl)cc3)cs2)cc1 (configuration not stated) | -10.6% | i
Cc1nc2cc(NS(=O)(=O)c3ccccc3)ccc2n1C | -11.3% | -13.5%
COc1cc(CN2CCN(Cc3cccc(OC)c3OC)CC2)cc(OC)c1 | -18.4% | -22.0%
COc1cc(Cl)c(C)cc1NC(=O)CNC(C)c1ccccc1OC (configuration not stated) | -13.5% | i
CCCOC(=O)c1sc2nc3c(cc2c1N)C(=O)CCC3 | 0.8% | /
CCc1ccc(S(=O)(=O)Nc2cc3c(cc2C)n(C)c(=O)c(=O)n3C)cc1 | -5.7% | -13.4%
COc1cccc(N2CCN(C(=O)c3cccn4c(=O)c5c(C)c(C)sc5nc34)CC2)c1 | 1.4% | -21.2%
CCc1cccc(C)c1NC(=O)C(CC)n1ncn2c(cc3cc(C)ccc32)c1=O (configuration not stated) | -1.8% | -4.0%
COc1cccc(N2CCN(S(=O)(=O)c3ccc4c(c3)CCCN4C(C)=O)CC2)c1 | -5.8% | 2.0%
Cc1cccc(-c2ccc([N+](=O)[O-])cc2CN2CCN(c3ncc(Cc4ccccc4)cn3)CC2)c1 | -10.4% | ?
NS(=O)(=O)c1ccc(CCNC(=O)c2ccc3nccnc3c2)cc1 | -7.3% | i
C[C@H]1CC[C@]2(O[C@H](CCO)C[C@@H](O)[C@@H]2O)O1 | -10.0% | -13.3%
CCc1ccc(NC(=O)CSC2=Nc3ccccc3C3=NC(CCC(=O)NCCc4ccccc4)C(=O)N23)cc1 (configuration not stated) | -25.8% | -23.9%
COc1ccc(NC(=O)C2=C(C)NC(=O)NC2c2cccs2)c(OC)c1 (configuration not stated) | 0.0% | -2.4%
Cc1[nH]c(=O)[nH]c(=O)c1S(=O)(=O)Nc1ccc(Oc2ccccc2)cc1 | -12.3% | -3.4%
O=C(N/N=C\c1ccccn1)C1COc2cc3ccccc3cc2O1 (configuration not stated) | -17.9% | /
OCCOCCn1c2ccccc2c2ccccc21 | -25.7% | /
COc1cccc(C(=O)Nc2cccc(OC(C)=O)c2)c1 | -10.7% | i
COc1ccc(-c2cccc(NS(=O)(=O)c3ccc([N+](=O)[O-])cc3)c2)nn1 | -14.1% | -24.4%
COc1ccc(NC(=O)[C@@]2(CC(=O)O)CC(/C=C/c3ccccc3)=NO2)cc1 | -8.6% | 1.0%

Ordered by molar mass (lowest first): part of the list above
Molecule | Vaccinia Venus | Vaccinia mCherry
CSc1ccc(/C=N/NC(=O)c2cc(O)cc(O)c2)cc1 | -9.2% | -8.0%
COc1cccc(/C=N/n2c(-c3cc(C)[nH]n3)n[nH]c2=S)c1O | -0.4% | -14.5%
COc1ccc(C(C)(O)c2nc(-c3ccc(Cl)cc3)cs2)cc1 (configuration not stated) | -10.6% | i

Going on with the list.
Molecule | Vaccinia Venus | Vaccinia mCherry
Cc1cccc(N2CCN(C(=O)Cn3nc(C)c4sc5ccccc5c4c3=O)CC2C)c1 (configuration not stated) | 1.0% | -15.1%
COc1ccc(NC(=O)CCC(=O)c2cccs2)c(OC)c1 | -3.5% | -14.6%
COc1ccc(Cl)cc1NC(=O)Cn1nnc(C(=O)NCc2ccc3c(c2)OCO3)c1N | -13.5%[7.34 µM] | ?
COc1ccc(NC(=O)CC2Nc3cccc4cccc(c34)NC2=O)cc1 (configuration not stated) | -29.9%&-6.3% | ?
CO[C@H]1CN(C)C(=O)c2ccc(NC(=O)C3CCC3)cc2OC[C@H](C)N(Cc2ccccn2)C[C@@H]1C | -12.6% | 0.2%
CC(C)Cn1c(/C=C/c2ccco2)nc2ccccc21 | -9.2% | i
CC1(c2ccc3c(c2)OCO3)NC(=O)N(CC(=O)Nc2ccc(N3CCOCC3)cc2)C1=O (configuration not stated) | -5.5% | -12.5%
Cc1nnsc1C(=O)N1CCCC(Nc2ccc(C(C)C)cc2)C1 (configuration not stated) | 0.0%[7.34 µM] | -28.7%[7.34 µM]
CCN1CCN(c2nc3ccccc3nc2C(C#N)C(=O)OC2CCCCC2)CC1 (configuration not stated) | -8.4% | i
Cc1ccc(SCC(=O)NCCc2ccccc2)cc1 | -5.1% | -25.3%
CCC(=O)Nc1nnc(SCC(=O)NCc2ccc3c(c2)OCO3)s1 | -2.2% | -12.1%
CCN1CCN(c2ccc(S(=O)(=O)N3CCCCC3)cc2NC(=O)c2ccc([N+](=O)[O-])o2)CC1 | 10µM* | 3.98µM*
COC(=O)c1sc(NC(=O)c2ccc3c(c2)OCO3)c(C#N)c1C | -6.3% | -19.7%
Cc1nnc(SCC(=O)NNC(=O)COc2ccc(Cl)cc2)n1C | -1.2% | -28.9%
COc1ccc(-c2cccc(C3CC=CC4C3C(=O)N(Cc3ccccc3)C4c3ccc4ccccc4c3)c2)cc1 (configuration not stated) | -10.6% | -2.2%
NC(N)=Nc1nc(CSCC/C(N)=N\S(N)(=O)=O)cs1 | 1.0% | -11.4%
COc1ccc(CNC(=O)c2csc3c2CCCC3)cc1 | -21.7% | ?
CCc1ccc(NC(=O)Cn2ncn3c(cc4ccccc43)c2=O)cc1 | -17.5%[7.34 µM] | -14.2%
COc1ccccc1NC(=O)CCCCCN1C(=O)c2cccc3cccc(c23)C1=O | -15.1% | ?
COCCCNC(=S)N(CCO)Cc1cc2cc3c(cc2[nH]c1=O)OCO3 | -8.2% | -12.6%
O=C(Nc1ccc(O)c(-c2nc3ccccc3o2)c1)c1cccs1 | 12.1% | -1.8%
CS(=O)(=O)N1CCCC(C(=O)NCc2ccccn2)C1 (configuration not stated) | 25.5% | 9.5%
CC1(C)C2CCC1(CS(=O)(=O)Nc1ccccc1)C(=O)C2 (configuration not stated) | -14.7% | -2.5%
CCCCC(=O)OCC(=O)c1cc(C)n(-c2c(C)n(C)n(-c3ccccc3)c2=O)c1C | -10.1% | -14.2%
CC1(C)CN=C(Nc2ccc(F)c(F)c2)S1 | -4.8% | -16.0%

Molecule | Vaccinia Venus | Vaccinia mCherry
Cc1cccc(NC(=O)C(=O)NCC2CCCN2S(=O)(=O)c2ccccc2)c1 (configuration not stated) | -27.5% | -3.5%
FC(F)(F)c1ccccc1-c1cc(N2CCNCC2)ncn1 | -14.3% | -13.3%
CNc1nc(N)c(C(=O)C23CC4CC(CC(C4)C2)C3)s1 | -15.0% | -23.5%
CC(C)NS(=O)(=O)c1ccc(N2C(=O)c3ccccc3C2=O)cc1 | -4.7% | i
COc1ccccc1-c1cc(NC(C)=O)c2ncc(-c3ccc(F)cc3)n2c1 | -13.3% | -6.0%
O=C(Nc1cccnc1Oc1ncnc2cc(Cl)ccc12)c1ccc(F)cc1 | -7.0% | i
CCOC(=O)C(C)Sc1nnc(Cn2c(=O)sc3ccccc32)n1-c1ccccc1 (configuration not stated) | -1.7% | -4.8%
CC1=NN(c2ccccc2)C(=O)C1(C)C | -8.4% | /
Cc1ccc2c(C(=O)CNc3nncs3)c(C)[nH]c2c1 | -21.4% | -27.7%
O=S(=O)(c1ccc2c(c1)CCC2)N1CCNCC1 | -11.1% | -16.5%
Cc1cccc2nc(-c3cccnc3)c(NCCC(C)C)n12 | -18.1% | -16.3%
Cc1onc(-c2ccccc2Cl)c1C(=O)Oc1ccccc1F | -11.4% | -11.7%
COc1cccc2c1N1C(=O)c3c(C(=O)O)cccc3C1CC2(C)C (configuration not stated) | 2.9% | i
COc1ccc(C(C(=O)Nc2c(C)cccc2C)n2c(=O)c(-c3ccccc3)nc3ccccc32)cc1 (configuration not stated) | -21.8% | ?
CC(OC(=O)Cc1ccccc1F)C(=O)Nc1ccc(Cl)cn1 (configuration not stated) | -11.8% | -15.1%
COc1ccc(OC)c(NC(=O)Cn2cc(C(=O)c3ccc(Cl)cc3)c(=O)c3cc(OC)ccc32)c1 | -9.8% | -6.9%
COCC(=O)Nc1nnc(SCC(=O)N2C(C)CCCC2C)s1 (configuration not stated) | 4.7% | -12.2%
Cc1ccccc1C(=O)Nc1nc(SCc2ccc(Cl)cc2)n[nH]1 | 5.6%[7.34 µM] | i[7.34 µM]
O=C(CSc1nccn1-c1ccccc1)Nc1ccc2c(c1)OCO2 | ? | /
COc1cccc(N2CCN(C(=O)c3ccc(Cn4c(=O)[nH]c5cc(OC)c(OC)cc5c4=O)cc3)CC2)c1 | -17.6% | -26.1%
CCN(C(=O)CSc1cc(-c2ccccc2)c2ccc(OC)cc2n1)C1CCS(=O)(=O)C1 (configuration not stated) | ? | -32.2%
CC(C)C(=O)NC(Oc1ccccc1Cl)C(Cl)(Cl)Cl (configuration not stated) | -8.4% | -5.4%
COc1ccccc1N(CC(=O)NCCc1ccccc1)C(=O)CCC(=O)Nc1ccccn1 | 3.8% | -18.5%
CC(C)COC(=O)N(C)C[C@H]1OCc2cn(nn2)CCCC(=O)N([C@H](C)CO)C[C@@H]1C | 0.7% | i
CCc1cnc2c(c1SCC(=O)Nc1cc(Cl)ccc1OC)c(=O)n(C)c(=O)n2C | -8.8% | -11.1%

Molecule | Vaccinia Venus | Vaccinia mCherry
O=Cc1c(C(=O)O)n(CC(=O)O)c2ccccc12 | -7.1% | -18.7%
Cc1ccc(NC(=O)CCn2cnc3ccccc3c2=O)c(C)c1 | -17.4% | -2.0%
CC(OC(=O)c1cccc(-n2cnnn2)c1)C(=O)Nc1cccc(Cl)c1 (configuration not stated) | -23.1% | -5.1%
Cc1cc(C)cc(Nc2nc3ccccc3nc2-n2nc(C)cc2C)c1 | -13.0% | -10.0%
